2A Renilla – FMDV 2A StopGo reporter, Renilla signal; HEK cells with a luciferase reporter of 2A StopGo recoding; Potency, µM (series often up to 57.5 µM), inactives show at the top dose signal change, negative = less light; hit rate 0.32% among 120,000; active means well fitted falling curve with a large enough effect; inconclusive means small, poorly fitted or top-dose-only effect; inactive means no such curve, though single readings can be large or run the other way; further: nearly all actives have a fitted effect of over 55% in size; overnight with compound
2A firefly – lowers the firefly signal of an FMDV 2A StopGo reporter; HEK cells with a luciferase reporter of 2A StopGo recoding; Potency, µM (titrated, usually from 57.5 µM), for the others: top-dose signal change, negative = less light; hit rate 0.23% among 120,000; active = well fitted falling curve with a large enough effect; inconclusive = small, poorly fitted or top-dose-only effect; inactive = no such curve, though single readings can be large or run the other way; further: nearly all actives have a fitted effect of over 60% in size; overnight with compound
The depositor's hits bear a star; u = inconclusive; [ ] = remark or other dose. On the % scale 0 is the no-effect control and ±100 the full control effect; potency means the concentration at half of the fitted maximal effect. Not a hit list; overall some 0.53% were active at least once.

No.	SMILES	2A Renilla	2A firefly
1	Cc1cccc(OCC(O)CN)c1 (stereo not given)	-3%	-8%
2	O=C(NCc1ccccc1Cl)c1ccc(NC(=O)c2nsc3ccccc23)cc1	19%	-23%
3	COc1ccc(-c2c3c(nc4sc(C(=O)Nc5ccc(F)cc5)c(N)c24)CC(C)(C)CC3=O)cc1	-4%	17%
4	COc1cccc(CNCc2cccc3[nH]ccc23)c1	-12%	-14%
5	COc1c2occc2c(OC)c2c(=O)cc(C(F)(F)C(F)F)oc12	-5%	-5%
6	O=C(Nc1cc(Cl)cc(Cl)c1)c1ccc(F)c(S(=O)(=O)N2CCN(c3ccccc3F)CC2)c1	6%	-9%
7	CCC(=O)N1CCc2cc(Br)cc(S(=O)(=O)N3CCCC(C(=O)Nc4cc(C)ccc4OC)C3)c21 (stereo not given)	21%	-5%
8	CCC1CCCCN1C(=O)Cn1c(=O)n(CCCCCC(=O)NCc2ccccc2)c(=O)c2sccc21 (stereo not given)	-5%	9%
9	CCC1CCCCN1C(=O)Cn1c(-c2ccc(F)cc2)nc(C)cc1=O (stereo not given)	-6%	-5%
10	CC(=O)OC1CCC2(C=O)C3CCC4(C)CC(C5=CC(=O)OC5)CC4(O)C3CCC2(O)C1 (stereo not given)	u	u
11	CCOc1ccc(NC(=O)NC2CCN(c3nc4ccccc4s3)CC2)cc1	-8%	13%
12	COc1ccc2nc(NC(=O)c3cc(=O)c4ccccc4o3)sc2c1	0%	70%[activator]
13	CC(NC(=O)c1nn(C)c(=O)c2ccccc12)c1ccc(-c2ccccc2)cc1 (stereo not given)	16%	0%
14	O=C1CCCC2=C1C(c1ccc(OCc3ccc([N+](=O)[O-])cc3)c(Cl)c1)C1=C(CCCC1=O)O2	51%[activator]	30%
15	CCOc1ccc(/C(O)=C2\C(=O)C(=O)N(Cc3ccco3)C2c2ccccc2)cc1Cl (stereo not given)	12%	6%
16	Cc1nn(-c2ccccc2)c(OC(=O)c2ccccc2Br)c1S(=O)(=O)c1ccccc1	19%	0%
17	CS(=O)(=O)NCC(c1ccco1)N1CCN(c2ccccc2)CC1 (stereo not given)	-14%	-15%
18	CCN(CC)S(=O)(=O)c1ccc(S(=O)(=O)Nc2ccc(SC#N)cc2F)cc1	u	u
19	Cc1ccc(Cl)cc1NS(=O)(=O)c1ccc2oc(=O)c3ncn(C)c3c2c1	-4%	7%
20	O=C(CN1CCN(CC(=O)Nc2ccccc2F)CC1)Nc1ccc(Cl)c(C(F)(F)F)c1	-1%	0%
21	c1cncc(-c2nc(Sc3ccc4c(c3)OCCCO4)c3ccccc3n2)c1	u	-18%
22	CCCCNC(=O)NC(=O)CCl	-22%	-7%
23	O=C1CCCN1c1cccc(-c2csc(-c3ccccc3)n2)c1	17%	122%[activator]
24	Cc1cc(OC(C)C(=O)NCCCn2ccnc2)c2c(C)cc(=O)oc2c1 (stereo not given)	-17%	-9%
25	CC(=O)c1ccc(/C=C/C(=O)O)o1	-2%	-7%
26	Cc1ccc(/C=C(/C#N)C(=O)C(C)C)c(C)c1	-4%	-6%
27	O=C(CN1CCN(c2ccc(O)cc2)CC1)N(Cc1cccs1)C1CCS(=O)(=O)C1 (stereo not given)	-5%[1.06 µM]	13%
28	CC(OC(=O)c1n[nH]c(=O)c2ccccc12)C(=O)NCc1ccccc1 (stereo not given)	25%	28%
29	Cc1ccc2c(c1)cc(C(=O)N1CCc3ccccc3C1)n2C	21%	0%
30	O=C(CCc1ccccc1)N1CCc2c([nH]c3ccccc23)C1c1ccc(Cl)cc1 (stereo not given)	u	u
31	Cc1ccc2nc(C)c(CC=C(Cl)Cl)c(Cl)c2c1	-2%	-2%
32	CCCCn1c(-n2nc(C)cc2C)nc2c1c(=O)n(CC(=O)OC)c(=O)n2C	-8%	-8%
33	CCc1ccc(Cn2nccc2NC(=O)C2CCN(S(=O)(=O)c3ccccc3)CC2)cc1	0%	-13%
34	CC(NC(=O)c1cccc(N(C)C)c1)c1ccccc1 (stereo not given)	2%	69%[activator]
35	COc1ccccc1/C(C#N)=C\c1ccccc1Cl	7%	26%
36	CCN(CC)CCN(C(=O)c1ccc(C(=O)OC)cc1)c1nc2ccc(Cl)cc2s1	-17%	36%[activator]
37	O=S(Cc1ccc(Cl)cc1)Cc1ccccc1F (stereo not given)	30%[activator]	0%
38	Cc1cc(OC(C)C(=O)N(Cc2ccco2)Cc2ccco2)cc(C)c1Cl (stereo not given)	17%	-6%
39	CCCS(=O)(=O)N1CCc2ccc(NC(=O)NC)cc21	11%	1%
40	COc1ccc(CCC(=O)NCc2ccc3c(c2)CCN3C(=O)c2ccc(F)cc2)cc1	-6%	-11%
41	Cc1ccc(NC(NC(=O)c2ccccc2C)C(Cl)(Cl)Cl)c(C)c1 (stereo not given)	32%	-5%
42	CCCCNC(=S)N/N=C1/CC(C)CC(C)(C)C1 (stereo not given)	38%[activator]	6%
43	O=C1C(c2ccc(C(F)(F)F)cc2)=C(Nc2ccc(Cl)cc2)c2ccccc21	-8%	-5%
44	Cc1ccc(-c2nnc3ccccc3c2C(=O)Nc2cccc(Cl)c2)cc1	72%[activator]	204%[activator]
45	CCC(Oc1ccccc1)C(=O)Nc1nn2c(-c3ccc(OC)c(OC)c3)nnc2s1 (stereo not given)	11%	18%
46	COc1cccc(N2CCN(c3ccc4nnc(CCC(=O)O)n4n3)CC2)c1	-3%	-12%
47	CCOC(=O)C(=O)Nc1ccc(NC(C)=O)cc1	7%	13%
48	O=C(c1cc2c(s1)CCC2)N1CCN(S(=O)(=O)c2ccccc2)CC1	-13%	-13%
49	CC1CCN(S(=O)(=O)c2ccc3nc(N4CCN(c5ccccc5)CC4)ccc3c2)CC1	7%	-5%
50	CCCc1cc(=O)oc2cc(OCC(N)=O)ccc12	-3%	11%
51	CCOCCCNCc1ccccc1Cl	1%	2%
52	Cc1ccc(CNC(=O)c2cc(-c3ccc(Cl)cc3)on2)cc1	-13%	-9%
53	N#Cc1cccc(NC(=O)c2nn(-c3ccccc3)c(=O)c3ccccc23)c1	3%	0%
54	COC(=O)c1sccc1S(=O)(=O)Nc1ccc(OC(F)F)cc1	119%[activator]	1%
55	O=C(NC(Cc1ccccc1)C(=O)Nc1ccc2c(c1)CCC2)c1ccco1 (stereo not given)	0%	0%
56	O=C(NCc1ccnc(OCC(F)(F)F)c1)c1cccs1	3%	27%
57	CC(=O)N1N=C(c2ccsc2)CC1c1ccc2nccnc2c1 (stereo not given)	1%	10%
58	O=C(O)C/C(=C/c1ccc(Cl)cc1Cl)c1nc2ccccc2o1	-11%	-2%
59	Cc1ccc2nc(/C=C/c3ccc([N+](=O)[O-])cc3)ccc2c1	-21%	169%[activator]
60	COC(=O)c1ccc(/C=N/OCc2ccccc2Cl)cc1	10%	0%

Among those listed so far, these contain an aryl methoxy group.
No.	SMILES	2A Renilla	2A firefly
3	COc1ccc(-c2c3c(nc4sc(C(=O)Nc5ccc(F)cc5)c(N)c24)CC(C)(C)CC3=O)cc1	-4%	17%
4	COc1cccc(CNCc2cccc3[nH]ccc23)c1	-12%	-14%
5	COc1c2occc2c(OC)c2c(=O)cc(C(F)(F)C(F)F)oc12	-5%	-5%
7	CCC(=O)N1CCc2cc(Br)cc(S(=O)(=O)N3CCCC(C(=O)Nc4cc(C)ccc4OC)C3)c21 (stereo not given)	21%	-5%
12	COc1ccc2nc(NC(=O)c3cc(=O)c4ccccc4o3)sc2c1	0%	70%[activator]
35	COc1ccccc1/C(C#N)=C\c1ccccc1Cl	7%	26%
40	COc1ccc(CCC(=O)NCc2ccc3c(c2)CCN3C(=O)c2ccc(F)cc2)cc1	-6%	-11%
45	CCC(Oc1ccccc1)C(=O)Nc1nn2c(-c3ccc(OC)c(OC)c3)nnc2s1 (stereo not given)	11%	18%
46	COc1cccc(N2CCN(c3ccc4nnc(CCC(=O)O)n4n3)CC2)c1	-3%	-12%

Additional structures.
No.	SMILES	2A Renilla	2A firefly
61	Cc1ccc(-c2cc(=O)c3cc(F)ccc3o2)cc1	95%[activator]	215%[activator]
62	CCOCCCNC(=O)CN1C(=O)c2c(c3ccccc3n2C)C1c1ccc(OC)cc1 (stereo not given)	-5%	-15%
63	Cc1ccc([N+](=O)[O-])cc1C#Cc1ccccc1	3%	0%
64	Cn1ncc2c(NC3CCC(c4ccccc4)CC3)ncnc21 (stereo not given)	u	u
65	O=c1c2nccnc2nc(SCc2cccc(F)c2)n1Cc1ccc2c(c1)OCO2	10%	13%
66	COc1ccc(-c2nc(C#N)c(NCCN3CCOCC3)o2)cc1	0%	50%[activator]
67	Cc1c(C#N)c(NC(=O)CSc2nnnn2C)n(CC2CCCO2)c1C (stereo not given)	-10%	-8%
68	O=Cc1cccn1C(Cc1ccccc1)C(=O)O (stereo not given)	-12%	-13%
69	Cc1c(NC(=O)c2ccccc2)cccc1-c1nc2ccccc2o1	u	u
70	CCn1c(C(=O)NCc2ccccc2Br)cc2oc3ccccc3c21	33%[activator]	17%
71	CCCn1nc(C(=O)NC2CCCc3ccccc32)c2ccccc2c1=O (stereo not given)	111%[activator]	-14%
72	COC(=O)c1ccc([C@@H]2Nc3c(OC)ccc(C)c3[C@@H]3C=CC[C@@H]32)cc1	1%	-7%
73	CCOC(=O)C1CCCN(C(=O)c2ccc3c(c2)sc2nc(-c4ccc(C)cc4C)cn23)C1 (stereo not given)	-8%	7%
74	O=C(c1cnn(-c2cccc(F)c2)c1-n1cccc1)N1CCN(c2ccccc2F)CC1	-11%	-17%
75	N#Cc1ccccc1S(=O)(=O)N1CCN(c2nc(-c3cccnc3)nc3ccccc23)CC1	173%[activator]	37%[activator]
76	COc1cccc(C(CNC(=O)c2ccc(S(=O)(=O)Nc3ccc(C)cc3)cc2)N(C)C)c1 (stereo not given)	0%	0%
77	Cc1ccc(Cl)cc1N1CCN(CC(=O)NC2CC2)CC1	-5%	1%
78	CCCNc1nc2ccccc2nc1C(=O)Nc1cc(C)ccc1OC	-4%	-5%
79	C[Si](C)(C)C#C/C=C/S(=O)(=O)c1ccccc1	u	u
80	Cc1nn(-c2ccccc2)c(OC(=O)C(C)C)c1Sc1ccc(Cl)cc1	0%	20%
81	Cc1nc(-c2ccccc2)sc1C(=O)Nc1ccncc1	u	u
82	O=C(NCc1ccc2c(c1)OCO2)c1cccc(N2CCCN(Cc3ccc(F)cc3)C2=O)c1	-26%	u
83	COc1ccc(C2CC(=O)Nc3c2c(=O)n(C)c2nc4ccccc4n32)cc1 (stereo not given)	-9%	-15%
84	CN1Cc2c(N)cccc2C(c2ccccc2)C1 (stereo not given)	-4%	-7%
85	NC(=S)N/N=C1\CCCCC1c1nccc2ccccc12 (stereo not given)	20%	102%[activator]
86	Cc1ccc(CNC(=O)c2sccc2C)cn1	5%	7%
87	O=C(CCc1nnc2n(Cc3ccccc3Cl)c(=O)c3ccccc3n12)Nc1ccccc1	-10%	-6%
88	O=C(CN1CCCCC1)Nc1oc2ccccc2c(=O)c1-c1ccccc1	-1%	1%
89	CC1CCN(c2oc(COc3cccc(Cl)c3)nc2C#N)CC1	6%	37%[activator]
90	Cc1ccc(-c2coc3cc4oc(=O)cc(-c5ccccc5)c4cc23)cc1	7%	0%
91	O=C(CCc1cccs1)Nc1ccc(N2CCOCC2)cn1	32%[activator]	134%[activator]
92	CCc1sc(C(=O)NCC(C)C)cc1C	25%	108%[activator]
93	COC(=O)COc1ccc2c(=O)c(-c3ccc(Cl)cc3)c(C)oc2c1	-6%	1%
94	CCOC(=O)C(=O)CC(=O)c1ccc(Cl)cc1Cl	6%	14%
95	COc1ccc(-n2nc(C(=O)NCc3ccc(F)cc3)c3c4ccccc4n(C)c3c2=O)cc1	-10%	-14%
96	Cc1c(CCNC(=O)c2c(F)cccc2F)sc2nc(-c3ccc(F)cc3)nn12	-1%	58%[activator]
97	Cc1ccc2nc(SCc3nc(-c4ccc(Cl)cc4)no3)[nH]c2c1	12%	24%
98	CC(C)c1ccc(-n2ccnc(NCc3ccc(F)cc3)c2=O)cc1	u	-19%
99	CC(NC(=O)CSc1nnc(COc2ccccc2Cl)n1C)c1ccc2c(c1)OCO2 (stereo not given)	43%[activator]	1%
100	O=C(/C=C/c1ccc(F)cc1)NCCc1ccccn1	5%	173%[activator]
101	CCOc1ccc(C2CC(=O)NC3=C2C(=O)CC(C)(C)C3)cc1 (stereo not given)	15%	22%
102	CCn1cc(C(=O)NCCc2ccccc2)c(=O)c2cc(S(=O)(=O)N3CCc4ccccc4C3)ccc21	-12%	-10%
103	CCSc1ncc(Cl)c(C(=O)Nc2cc(C)ccc2C)n1	-10%	-12%
104	Cc1[nH]c2ccccc2c1C1N2CC3(C)CN1CC(C)(C2)C3=O (stereo not given)	4%	-8%
105	COc1cccc(C(=O)Nc2c(NC3CCCC3)c3ccccc3oc2=O)c1	1%	8%
106	Cc1ccc(NC(=O)C(C)N(C)Cc2ccc3ccccc3c2)c(C)c1 (stereo not given)	23%	37%[activator]
107	O=C(COCc1cc(-c2ccc(F)cc2)on1)Nc1cccc(C(F)(F)F)c1	-16%	-15%
108	CCCOc1ccc(NC(=O)CC2C(=O)N(c3cccc(OC)c3)C(=O)N2Cc2cccs2)cc1 (stereo not given)	79%[activator]	-18%
109	COc1ccccc1N1CCN(C(=O)CCNS(=O)(=O)c2ccc3c(c2)CCN3C(=O)C2CC2)CC1	4%	-10%
110	CC1NCCOC1c1ccccc1 (stereo not given)	-7%	-16%[11.5 µM]
111	COc1ccc(Cl)cc1NC(=O)Cn1cc(C(=O)c2ccncc2)c(=O)c2cc(C)ccc21	-6%	-23%
112	CCc1ccc(C(=O)c2cn(CC(=O)Nc3ccc(Cl)cc3)c3cc4c(cc3c2=O)OCO4)cc1	-26%	-36%
113	COCc1nnc(NS(=O)(=O)c2ccc(C)cc2)s1	42%[activator]	6%
